# FEN1 inh: blocks human flap endonuclease 1 | 390,000 compounds, 0.35% hits | P39748 | Potency, µM (highest dose often 114 µM), without a hit: top-dose activity change, negative = inhibition, usual class: inhibitors | AID 588795 | Recombinant FEN1 flap cleavage, fluorescence, 15 min; also: nearly all actives have a fitted effect of over 65% in size
# Target sequence (P39748 whole entry, looked up): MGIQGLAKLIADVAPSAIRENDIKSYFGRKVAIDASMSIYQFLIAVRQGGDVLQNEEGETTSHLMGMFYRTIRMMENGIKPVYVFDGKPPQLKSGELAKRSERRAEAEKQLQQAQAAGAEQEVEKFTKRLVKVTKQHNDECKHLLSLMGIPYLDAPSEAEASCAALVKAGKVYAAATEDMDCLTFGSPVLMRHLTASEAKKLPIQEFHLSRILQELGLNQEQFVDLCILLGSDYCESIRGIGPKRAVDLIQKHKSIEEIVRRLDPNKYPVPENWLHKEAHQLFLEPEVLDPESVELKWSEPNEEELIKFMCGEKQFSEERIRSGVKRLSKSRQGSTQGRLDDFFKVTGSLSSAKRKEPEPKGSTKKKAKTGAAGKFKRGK
#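 With each library titrated from low to high concentration, compounds met 10 nM FEN1 for 15 min at room temperature before 50 nM substrate was added; readings at 0 and 15 min fed four-parameter Hill curve fits.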
# N370S GC mod: inhibits or activates N370S mutant glucocerebrosidase; P04062; N370S GC spleen homogenate, 4MU-glucoside fluorescence; Potency, µM (top dose mostly 59.4 µM), for inactives: top-dose activity change, negative = inhibition, usual class: inhibitors; 330,000 compounds, 0.092% hits; AID 2101;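 also: 0% = full enzyme activity and -100% = no enzyme basal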
# Active calls of the source: *; ? = inconclusive; / = no result given; & = joins results of further samples; [ ] = remark or other dose. Calls follow the shape of the dose curve; as a rule, active = well fitted curve in the direction sought with a large enough effect; inconclusive = small, poorly fitted or top-dose-only effect, or another doubt; inactive = no such curve, though single readings can be large; an effect the other way counts as inactive or inconclusive. Unless noted, % is scaled to controls: 0 for no effect and ±100 for the full control effect; potency is read from the fitted curve at half-maximal effect. The list is partial; most or all hits stand in other tables.
SMILES,FEN1 inh,N370S GC mod
Cc1noc(C)c1C(=O)Nc1cc(S(=O)(=O)N2CCCCC2)ccc1N(C)C,-11.9%,-1.7%
Cc1ccc(-c2noc(C3CCN(S(C)(=O)=O)CC3)n2)o1,-5.8%,2.8%
N/C(Cc1cccc2ccccc12)=N\OC(=O)c1cccs1,-0.7%,-3.5%
CN(C)/C=N/c1cc(=O)n(C)c(=O)n1CC1CC1,-2.4%,-6.6%&17.4%
CCc1ccccc1NC(=O)CSc1nc2c(oc3ccccc32)c(=O)n1C,1.5%,/
CN(C(=O)Cn1cnc2sccc2c1=O)C1CCCCC1,0.5%,/
Fc1cccc(Cl)c1Cn1nnc2c(N3CCC4(CC3)OCCO4)ncnc21,-11.7%,0.5%
COc1ccc(/C=C2/C(=O)OCc3cc(OC)c(OC)cc32)cc1,-15.3%,-9.2%
CCN(CC)S(=O)(=O)c1ccc(NC2CCCc3ccccc32)nc1 (configuration not stated),-12.6%,3.8%
CCC(=O)c1ccccc1OCCN1CCN(Cc2ccccc2)CC1,-1.4%,?
COC(=O)CN(c1ccc(OC)cc1)S(=O)(=O)c1c(C)noc1C,6.4%,-5.7%
C=C(C)COc1ccc2c(CC)cc(=O)oc2c1,4.2%,16.1%
CC(C)CCNC(=O)c1ccc2c(c1)ncn2C1CCCC1,3.8%,9.0%
CCN(CC)S(=O)(=O)c1ccc2oc(C(=O)N(C)Cc3ccccc3)c(C)c2c1,1.0%,/
CCCN1CCN(C(=O)Cn2ncc3ccccc32)CC1,14.0%,-16.1%
CSc1ncccc1C(=O)OCC(=O)Nc1cccc(S(=O)(=O)N2CCOCC2)c1,-12.8%,/
CCOc1ccc(CCNC(=O)C2CCN(S(=O)(=O)N3CC(C)CC(C)C3)CC2)cc1OCC (configuration not stated),-4.7%,-27.7%
CC(C)(C)C1CCC(C(=O)OCC(=O)Nc2ccc3[nH]c(=O)[nH]c3c2)CC1 (configuration not stated),0.6%,1.4%
Cc1ccc2nc(C)c3c(c2c1)OC(C(C)(Cl)Br)C3 (configuration not stated),-30.8%,7.3%
Cn1cccc1-c1cc(C(=O)N/N=C/c2ccc(Cl)cc2)[nH]n1,-2.6%,-4.3%
COc1ccccc1N1CN(S(=O)(=O)c2ccc(C)cc2)c2nc3ccccc3nc21,6.3%,/
Cc1ccc2nc(NC(=O)C3CCCN3C(=O)OC(C)(C)C)sc2c1 (configuration not stated),4.1%,19.2%
Cc1ccccc1NC(=O)c1sc2nc3n(c(=O)c2c1C)N=C(c1ccccc1)CS3,13.0%,/
COc1ccc(NC(=O)N(C2CCCCC2)C(C)c2cccnc2)c(OC)c1 (configuration not stated),-11.2%,-4.1%

# Of the compounds above, three have a thiophene ring, fused or not:
SMILES,FEN1 inh,N370S GC mod
N/C(Cc1cccc2ccccc12)=N\OC(=O)c1cccs1,-0.7%,-3.5%
CN(C(=O)Cn1cnc2sccc2c1=O)C1CCCCC1,0.5%,/
Cc1ccccc1NC(=O)c1sc2nc3n(c(=O)c2c1C)N=C(c1ccccc1)CS3,13.0%,/

# Remaining list, next part:
SMILES,FEN1 inh,N370S GC mod
CC1(C)S[C@H]2C(NC(=O)[C@@H](N)c3ccc(O)cc3)C(=O)N2[C@@H]1C(=O)O (some centres not stated),/,-4.3%
COCCNC(=O)COc1ccc(Oc2ccccc2)cc1,-7.6%,-18.4%
COc1cccc(CN(C)C(=O)C(Cc2ccccc2)NC(=O)c2ccccc2)c1OC (configuration not stated),-1.7%,-0.8%
Cn1cnnc1SCc1ccc(C#N)cc1Cl,-14.6%,-3.7%
COc1cccc(C2SCC(=O)N2c2cccc(C)c2)c1OC (configuration not stated),4.1%,3.8%
CCCCC1(C)NC(=S)N2N1C(=S)NC2(C)CCCC (configuration not stated),5.7%,-1.4%
Cc1ccc(CN2CCC(CNC(=O)Nc3ccc(C)c(C)c3)C2)cc1 (configuration not stated),12.2%,/
CCC(=O)N1CCc2cc(Br)cc(S(=O)(=O)Nc3ccc(C)cc3C)c21,-7.6%,/
COc1ccccc1CNC(=S)NCc1ccc(F)cc1,9.9%,3.5%
CCOC(=O)C1=C(CS(=O)(=O)c2ccc(F)cc2)NC(=O)NC1c1cc(OC)c(O)c(OC)c1 (configuration not stated),-0.9%,-1.9%
CNC(=O)C1CC(=O)N(c2ccc(OCC(=O)Nc3ccc(OC)cc3)cc2)C1 (configuration not stated),21.6%,/
O=C(O)CN(CC(=O)O)CC(=O)O,-3.8%,-5.6%
CC1CCC/C(=N/Nc2nc3ccccc3s2)C1 (configuration not stated),-0.9%,12.4%
O=C(c1ccco1)N1CCN(S(=O)(=O)/C=C/c2ccccc2)CC1,19.2%,1.2%
c1ccc(-c2csc(=Nc3cccnc3)n2CC2CCCO2)cc1 (configuration not stated),6.7%,-7.6%
COc1ccc2c3c(cccc13)N(C)N=C2C,-11.4%,7.3%
C=CCn1c(SCC)nc2sc3c(c2c1=O)CCc1ccccc1-3,-10.2%,13.4%
NS(=O)(=O)c1cc(C(=O)OCC(=O)c2ccc3c(c2)OCCO3)ccc1Cl,-2.2%,-7.4%
Cc1ccc(C2=NN(CC(=O)NCCN(CC(C)C)CC(C)C)C(=O)CC2)cc1,11.7%&-1.2%,-18.1%
Cc1ccnc2nc(C(=O)Nc3nc4ccccc4s3)nn12,-13.2%,-5.9%
O=C(Nc1cc(C(F)(F)F)ccc1Cl)C(Sc1n[nH]c(=O)[nH]c1=O)c1ccccc1 (configuration not stated),1.9%,9.4%
CCN(C[C@H]1N[C@@](CC)(C(=O)OC)[C@H]2C(=O)N(Cc3ccccc3)C(=O)[C@@H]12)S(=O)(=O)c1ccc(C)cc1,7.2%,/
CCn1nc(C)c(NC(=O)c2cc(Br)ccc2Cl)c1C,-1.5%,2.8%
O=[N+]([O-])c1ccc(COc2cccc(CNc3ccc(Br)cc3)c2)cc1,17.0%,7.1%
O=C(NCCN1CCCCC1)Nc1cccc(Cl)c1Cl,16.9%,-10.3%
COc1ccc(NC(=O)Cn2c(=O)n(CCCC(=O)NCc3ccccc3Cl)c(=O)c3ccccc32)c(OC)c1,-3.8%,/
COc1ccc(Cl)cc1C(=O)N1CCN(c2ccccn2)CC1,6.5%,-3.7%
Cc1cccc(C)c1NC(=O)C1c2cccc[n+]2CC(=O)N1Cc1ccc2c(c1)OCO2 (configuration not stated),-12.9%,-4.0%
Cc1ccc(N=C2NC(=O)CS2)cc1,-4.0%,23.6%
CCOC(=O)c1cn(Cc2ccc(C)cc2)nn1,-1.2%,-17.4%
O=C(NCc1ccccc1Cl)c1ccc2c(c1)nnn2C1CCCC1,11.9%,/
COc1ccc(-n2nc(C(=O)NCC(=O)N3CCC(C)CC3)c3ccccc3c2=O)c(OC)c1,2.5%,-2.2%
O=C(NCc1ccccn1)Nc1ccc(Cl)cc1Cl,-14.9%,-0.5%
C=CCSC[C@@H]1Nc2cc(Cl)c(S(N)(=O)=O)cc2S(=O)(=O)N1,/,5.0%[21.6 µM]
COc1cc(C2c3c(c(C)c(C)oc3=O)Oc3c(C)c(C)oc(=O)c32)ccc1OS(=O)(=O)c1ccc(C)cc1,4.7%,/
CC(=O)c1ccc(NC(=S)NC(NC(=O)c2ccco2)C(Cl)(Cl)Cl)cc1 (configuration not stated),-3.9%,-2.2%
Nc1ccc(C(=O)Nc2ccc(OC(F)(F)C(F)F)c(NC(=O)c3ccc(N)cc3)c2)cc1,6.0%,-14.8%
CCOC(=O)Nc1ccc2c(CN3CCN(S(=O)(=O)c4ccccc4F)CC3)cc(=O)oc2c1,-3.5%,0.5%
Cc1ccc(C(=O)OCC(=O)NC(C)C2CC3CCC2C3)cc1N (configuration not stated),-10.2%,/
Cc1ccc(CNC(=O)c2c(C)oc3nc(C)nc(N4CCOCC4)c23)cc1,1.9%,/
COc1ccc(NC(=O)CSc2nc3ccccc3nc2N2CCC(C)CC2)cc1,-20.7%,/
O=C(NC1CCSC1=O)C1CCCCC1 (configuration not stated),-3.7%,2.6%
CCOc1ccc(S(=O)(=O)N(C)c2ccc(OCC(=O)NC3=NCCS3)cc2)cc1,-12.5%,-20.6%
CC1CCN(S(=O)(=O)c2cc(Cl)ccc2Br)CC1,-20.8%,3.5%
COCCn1c(SCC(=O)N2CCCCC2)nc2ccccc2c1=O,-3.4%,6.8%
Cc1ccc(C2(C)NC(=O)N(CC(=O)NNC(=O)c3ccccc3)C2=O)cc1 (configuration not stated),-3.4%,/
CC(C)c1ccc(/C=N/NC(=O)c2nnn(-c3nonc3N)c2CN(C)C2CCCCC2)cc1,-6.2%,2.6%
CCOc1ccc(N2C(=O)Nc3ccccc3C2(O)C(=O)NCc2ccc3c(c2)OCO3)cc1 (configuration not stated),-4.3%,-7.1%

# Complete entries as entered above.
# `CCOC(=O)C1=C(CS(=O)(=O)c2ccc(F)cc2)NC(=O)NC1c1cc(OC)c(O)c(OC)c1` (configuration not stated) as listed: FEN1 inh: -0.9%; N370S GC mod: -1.9%
# `Cc1ccc2nc(NC(=O)C3CCCN3C(=O)OC(C)(C)C)sc2c1` (configuration not stated) as listed: FEN1 inh: 4.1%; N370S GC mod: 19.2%

# (next part)
SMILES,FEN1 inh,N370S GC mod
CNC(=S)NNC(=O)c1sc2cc(C(F)(F)F)cnc2c1-c1cccnc1,-0.3%,-10.2%
O=C(CN1CCN(c2ccc(F)cc2)CC1)Nc1ccc2c(c1)OCCO2,-4.1%,-1.4%
Cc1ccc(SCc2ccc(C(=O)Nc3cccc([N+](=O)[O-])c3C)cc2)cc1,-0.6%,-11.7%
COc1ccc(C(C)=O)cc1COC(=O)CSC(C)C(=O)Nc1cc(C)on1 (configuration not stated),-2.7%,0.3%
Cc1cccc(NC(=O)CS(=O)(=O)Cc2ccccc2)n1,-2.1%,4.7%
COC(=O)C/C(N)=C(\C#N)C(=O)OC,-13.3%,2.2%
O=C(NCCCO)c1ccc2[nH]c3ccccc3c2c1,2.2%,19.0%
Cc1ccc(C)c(S(=O)(=O)N2CCN(c3ncccn3)CC2)c1,-3.3%,9.8%
CCOC(=O)Cc1csc(NC(=O)CCCC(=O)O)n1,0.0%,4.8%
CCOc1ccc(NC(=O)c2ccc3nc(Cc4ccccc4)oc3c2)cc1,-5.5%,/
CCOc1ccc(N(CC(=O)NC2CCCCCC2)S(=O)(=O)c2c(C)noc2C)cc1,0.6%,0.1%
COc1ccc(CNC(=O)CN(Cc2ccccc2F)C(=O)c2csnn2)cc1,7.6%,-16.6%
CCN(CC)S(=O)(=O)c1cc(NC(=O)CN2C(=O)NC(C)(c3ccccc3)C2=O)ccc1C (configuration not stated),10.7%,-10.6%
COc1ccccc1CC(=O)N(Cc1ccccc1)c1ccc(C)cc1,-21.1%,?
CC(C)[C@H](NC(=O)NC1CCCC1)C(=O)O,1.7%,5.0%
CN(Cc1cnc2nc(N)nc(N)c2n1)c1ccc(C(=O)N[C@H](CCC(=O)O)C(=O)O)cc1,/,-3.5%[21.6 µM]
CCCS(=O)(=O)c1c(S(=O)(=O)CCC)c2cc(CC)ccn2c1C(=O)OC,-21.0%,5.4%
Cc1cccn2c(=O)c3cc(C(=O)NCC(C)C)sc3nc12,-1.1%&12.0%,?
CC(Oc1ccccc1)c1ccnc2nc(/N=C/N(C)C)nn12 (configuration not stated),-15.5%,2.2%
CCCN(C(=S)Nc1ccccc1)C1CCS(=O)(=O)C1 (configuration not stated),0.2%,8.0%
O=C(COc1ccccc1)Nc1cccc(-c2nnc(-c3ccccc3)o2)c1,8.0%,-7.9%
COc1ccc2[nH]c3c(c2c1)CCN1C(=O)C(CC(=O)NCCCN(C)C)C[C@H](C(=O)N2CCCCC2)[C@@]31CCc1ccccc1 (some centres not stated),-16.2%,/
O=C(COc1ccc(Cl)cc1Cl)NN1C(=O)/C(=C\c2ccc(Cl)cc2)SC1=S,53.2%[activator],-0.6%
CC(NC(=O)c1ccc(F)cc1)c1nc2ccccc2[nH]1 (configuration not stated),-1.2%,/
COc1ccccc1NC(=O)CSCc1nc2ccccc2[nH]1,19.2%,-1.4%
CN(c1ccc(C(=O)COC(=O)C2CC2)cc1)S(C)(=O)=O,-3.5%,/
CCC(=O)NC(c1ccc(OC)cc1)c1c(O)ccc2ccccc12 (configuration not stated),-7.8%,24.8%
CCC1Nc2ncnc(N3CCN(c4ccccc4)CC3)c2N(Cc2ccccc2)C1=O (configuration not stated),-6.3%,/
COc1ccc(Br)cc1CNC(=O)C1CCN(C(=O)N(C)C)CC1,1.9%,6.4%
Cc1onc(-c2c(F)cccc2Cl)c1C(=O)OCc1cnc(Cl)s1,-22.9%,-6.9%
COC(=O)c1cn(CC(=O)N2C(C)CCCC2C)c2ccccc12 (configuration not stated),2.6%,5.4%
CCCc1nnc(SCC(=O)Nc2ccccc2Cl)n1CC1CCCO1 (configuration not stated),5.8%,3.9%
CCOc1ccc(N(CC(=O)NCCOc2ccccc2OC)S(=O)(=O)c2ccccc2)cc1,-3.8%,1.5%
C=CCNc1nc(-c2ccc([N+](=O)[O-])cc2)cs1,2.2%,-17.9%
Cc1[nH]c(C)c(S(=O)(=O)N2CCN(c3ccc(Cl)cc3)CC2)c1C(=O)N1CCCC1,15.9%,-2.3%
COc1ccc(-c2cn[nH]c2N)cc1,1.0%,2.8%
COC(=O)c1sccc1NC(=O)c1ccc(OC)cc1,-5.0%,12.6%
CCN(CC)c1ccc(/C=N/N2CCN(Cc3ccccc3)CC2)cc1,7.6%,-10.3%
COc1ccc(OC)c(S(=O)(=O)Nc2ccc(C)c(C)c2)c1,-1.4%,18.4%
CCOc1ccc(NC(=O)COC(=O)C2C3CC4OC(=O)C2C4C3)cc1 (configuration not stated),-1.6%,?
